PKD1 inh: inhibitors of human PKD1 kinase, biochemical, fluorescence polarization; AID 797, 2007; Serine/threonine-protein kinase D1 (Homo sapiens), Q15139; inhibition, %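 (about 10 µM by stock and volumes)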; actives 0.056% (n = 200,000); PKD1 kinase fluorescence polarization assay;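 active means inhibition of 50% or more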;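 further: controls were vehicle for no effect and a reference inhibitor for full effect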
INS promoter inh: inhibitors of insulin promoter-driven GFP, primary screen, imaging, TRM-6 cells (human fetal islet line), eGFP reporter, cell count | reporter expression induced with tamoxifen | inhibition, % at 2 µM | actives 0.9% (n = 130,000);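 active means inhibition above the mean plus 3 SD, with well images judged a real hit on visual review, cut at about 60% in these data, passing the limit was not always enough; inconclusive means inhibition over the cutoff but images rejected on review; inactive means inhibition not above the cutoff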
RGS16-Gao: modulators of RGS16 binding to Galphao, primary screen, biochemical, human proteins, multiplexed bead flow cytometry. Regulator of G-protein signaling 16 (Homo sapiens) + Guanine nucleotide-binding protein …. bead-based flow cytometry RGS16-Galphao binding, fluorescence; actives lie on both sides. binding response (% of control), % at 10 µM. actives 0.38% (n = 220,000);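 active means below 25% or above 175%, edge rows of some plates excepted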;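 further: Galphao activated by GDP with aluminum fluoride before binding; 100% = wells without compound and 0% = beads without RGS; some results beyond the cut were filed as inactive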
Target sequence (O15492 whole entry, looked up): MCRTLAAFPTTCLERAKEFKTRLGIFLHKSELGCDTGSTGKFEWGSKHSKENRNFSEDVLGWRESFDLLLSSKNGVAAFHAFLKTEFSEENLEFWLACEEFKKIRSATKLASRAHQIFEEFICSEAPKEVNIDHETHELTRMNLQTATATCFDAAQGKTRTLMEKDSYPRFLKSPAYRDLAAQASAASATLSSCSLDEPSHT
Target sequence (P09471 whole entry, looked up): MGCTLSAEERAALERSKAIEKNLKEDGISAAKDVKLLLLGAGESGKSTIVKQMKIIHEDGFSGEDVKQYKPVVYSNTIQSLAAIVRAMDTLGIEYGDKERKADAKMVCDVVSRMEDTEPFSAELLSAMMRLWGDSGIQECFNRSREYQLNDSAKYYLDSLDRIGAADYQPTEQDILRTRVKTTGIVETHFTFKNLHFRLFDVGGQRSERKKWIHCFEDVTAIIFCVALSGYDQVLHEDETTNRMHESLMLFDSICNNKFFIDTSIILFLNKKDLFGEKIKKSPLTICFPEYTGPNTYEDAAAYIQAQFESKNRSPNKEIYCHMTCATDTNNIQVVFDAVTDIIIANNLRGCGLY
GALR2 ag: GALR2 receptor agonists, primary screen, cell-based | actives 0.48% (n = 140,000) | GALR2-expressing cells, agonist activation read-out | Galanin receptor type 2 (Homo sapiens), O43603 | activation, %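 (tested at 5 µM)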;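 active means above mean plus 3 SD of all compounds, about 5% in these data, not always enough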;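 further: 0% = vehicle buffer wells and 100% = reference agonist at full effect; tested in CHO reporter cells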
Target sequence (O43603 whole entry, looked up): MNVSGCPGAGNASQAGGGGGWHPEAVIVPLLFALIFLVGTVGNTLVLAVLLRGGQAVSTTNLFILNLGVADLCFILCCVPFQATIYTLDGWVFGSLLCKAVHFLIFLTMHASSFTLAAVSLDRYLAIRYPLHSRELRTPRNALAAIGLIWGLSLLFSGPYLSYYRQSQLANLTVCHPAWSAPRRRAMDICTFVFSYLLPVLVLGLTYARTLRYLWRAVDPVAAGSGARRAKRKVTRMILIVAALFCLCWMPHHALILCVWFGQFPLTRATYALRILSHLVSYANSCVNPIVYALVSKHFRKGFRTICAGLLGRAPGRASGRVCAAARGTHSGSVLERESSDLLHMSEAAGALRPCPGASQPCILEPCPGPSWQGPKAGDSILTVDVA
HSV replic up: enhancers of HSV replication in host cells, fold increase, host cell viability; HSV replication augmentation in cells; maximum fold increase; actives 0.005% (n = 220,000);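 active means peak rise of 1.5-fold or more in the series; inconclusive means self-fluorescent or not available for retest; tested in PC3 cells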;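 further: first round at 10 µM; read as green reporter fluorescence; hits show the peak of a series up to 25 µM; 1 = signal of infected wells without compound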
INS promoter inh cell count: also measured in INS promoter inh; calls as there; normalized cell count, %; measured here: cell count, toxicity; reference of the scale not given here;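 cells exposed to compound for 48 h; stained nuclei by imaging scaled within each plate; lower means fewer cells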
HSV replic up primary fold: further read-out of HSV replic up, marked with its call; fold increase; compound at 10 µM; measured here: primary screen fold increase 10 uM; tested in PC3 cells;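 GFP signal in the first replicate; 1 = infected wells without compound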
Active calls of the source: *; i = inactive; ? = inconclusive; nt = no result given. Rows are unselected. About 1.3% of those tested had a hit in this group.

Values run as follows: PKD1 inh	INS promoter inh	INS promoter inh cell count	RGS16-Gao	GALR2 ag	HSV replic up	HSV replic up primary fold
CCOc1ccccc1Nc1nc2ccccc2n2cnnc12
 : -6.0	46.3	81.4	123.4	-1.6	nt	nt
CCc1ccc(CN(C)Cc2nc(COc3ccccc3)no2)nc1
 : 2.6	nt	nt	103.6	nt	i	1.03
Cc1ccc(S(=O)(=O)Cc2ccc(C(=O)NCc3cccs3)o2)cc1
 : -2.1	38.5	74.8	97.5	-1.5	i	0.9
O=C(Oc1cccc2cccnc12)c1cccc([N+](=O)[O-])c1
 : -11.1	0.0	142.4	101.9	nt	i	0.67
Cn1c(O)c(N=NC(=O)c2cc(-c3cccs3)nc3ccccc23)c2ccccc21
 : 5.8	-12.9	80.4	87.6	-0.1	i	0.94
Nc1ccccc1C(=O)NNC1=C(C(=O)C(F)(F)F)CCC1
 : nt	nt	nt	102.1	nt	i	1.05
COc1cc([C@@H]2C[C@H]3CN(c4ccccc4)C(=O)[C@]34CCCN24)cc(OC)c1OC
 : 0.5	nt	nt	98.5	nt	i	0.7
O=C1CC(N2CCC(c3nc4ccccc4o3)CC2)C(=O)N1Cc1cccs1 (stereo not drawn)
 : -7.6	10.8	59.5	85.6	-0.7	i	1.12
COc1ccccc1NC(=O)Cn1cnc2sc(C(=O)NCc3ccco3)c(C)c2c1=O
 : -9.8	17.4	106.2	104.0	-0.7	i	0.82
Cc1ccc(C2CC(=O)Nc3c2ccc2ccccc32)cc1[N+](=O)[O-] (stereo not drawn)
 : -8.0	30.8	84.3	104.4	-0.5	i	0.95
COc1ccc(S(=O)(=O)N2N=C(c3ccc(NS(C)(=O)=O)cc3)CC2c2ccco2)cc1 (stereo not drawn)
 : -6.7	20.0	90.7	105.2	nt	i	0.86
Cc1ccc(S(=O)(=O)c2ccc(Cl)cc2)cc1S(=O)(=O)NC(C)C(=O)O (stereo not drawn)
 : -5.2	11.5	104.5	111.7	-1.4	i	0.68
O=C(CCC1CCCC1)Nc1ccc([N+](=O)[O-])cn1
 : -10.6	3.1	116.1	105.4	-1.0	i	0.88
CCCC(C(=O)NC(C)(C)C)N(CC1CCCO1)C(=O)c1snc(C(N)=O)c1N (stereo not drawn)
 : 3.0	0.0	74.9	55.7	nt	i	1.12
COC(=O)[C@@H]1CCCN1C(=O)CCc1nnc(C2CCCCC2)o1
 : 10.2	-22.2	120.7	106.0	nt	i	0.88
CSc1ccc(CNC(C)(C)CO)cc1
 : -6.2	65.0	132.6	108.7	nt	i	0.91
O=C(O)CCSc1nnc(COc2cccc3cccnc23)n1-c1ccccc1
 : -8.2	25.6	108.1	96.5	nt	i	0.88
O=C1c2ccccc2C(=O)N1CCSC(=S)N1CCOCC1
 : -9.8	-16.7	111.6	103.3	-2.3	i	0.83
CNC(=O)[C@@H]1C[C@H]1[C@@H](NC(=O)OCc1ccccc1)c1ccccc1
 : 2.3	-255.0	84.4	110.1	-1.4	i	1
CCN1C2=C(C(=O)CCC2)C(c2ccc(O)cc2)C2=C1CCCC2=O
 : 4.5	-194.4	104.7	43.7	-1.0	i	0.79
CCOC(=O)C(Sc1cc(C)nc(N)n1)C(C)=O (stereo not drawn)
 : 3.2	-77.4	69.3	99.1	-3.4	i	1.07
COc1ccc(Cl)c(N2CCN(CCCNC(=O)Nc3ccc(C)cc3)CC2)c1
 : -1.5	9.1	96.8	98.0	-3.2	nt	nt
COc1ccc(NC(=O)c2ccc3nccnc3c2)cc1
 : 3.8	-386.5	36.3	102.7	-2.6	i	0.93
c1ccc(C(c2ccccc2)N2CCN(Cc3nnnn3C3CCCCC3)CC2)cc1
 : -2.2	38.1	66.5	103.1	-3.3	i	0.9
COc1cc2cc(C(c3nnnn3C3CCCC3)N(C)C3CCCCC3)c(=O)[nH]c2cc1OC (stereo not drawn)
 : -8.3	5.0	92.2	59.6	0.6	i	0.99
C=CCC(C(=O)OC)(C(=O)OC)c1ccc([N+](=O)[O-])cc1[N+](=O)[O-]
 : -6.1	nt	nt	103.9	nt	i	0.89
CCC1(C)Cc2c(sc3nnn(CC(=O)Nc4ccc(Cl)cc4)c(=O)c23)CO1 (stereo not drawn)
 : -5.7	nt	nt	100.2	-1.9	i	0.91
N#Cc1cccc(NC(=O)CSc2ccccc2)c1
 : -13.0	9.1	124.5	102.0	-1.1	i	1.01
CCN(CC)CCCNC(=O)C1CCN(C(=O)c2cc3sccc3n2Cc2ccc(F)cc2)CC1
 : 1.1	nt	nt	101.1	-0.7	i	0.97
CCCCCNc1c(C(=O)OCC)c(=O)[nH]c2ccccc12
 : -6.1	-7.1	121.4	88.4	-1.0	i	0.8
O=C(CSc1nnnn1-c1ccccc1)Nc1ncc(Cc2ccccc2Cl)s1
 : 8.3	6.7	88.2	76.9	-1.2	i	0.97
COC(=O)c1ccc(NC(=O)Nc2cccc(F)c2)cc1
 : 1.5	nt	nt	99.8	nt	i	1.02
CCCCc1oc2c(c(=O)c1C)C(=O)CC(c1ccccc1)C2 (stereo not drawn)
 : 1.4	3.1	55.7	42.4	1.1	i	0.73
S=C(NCCc1ccccc1)N/N=C/c1ccccc1Cl
 : 4.9	nt	nt	100.2	-1.6	i	0.89
CC(C)(C)S(=O)(=O)c1cnc2c(-c3ccsc3)cnn2c1N
 : -1.1	nt	nt	99.7	nt	i	0.89
Cc1nc2ccc(NC(=O)CCS(=O)(=O)c3ccc(Cl)cc3)cc2s1
 : 12.9	-8.3	95.1	58.9	-1.0	i	0.86
CCNC(=O)c1sc(-c2ccccc2)nc1C
 : 8.6	-57.1	70.5	102.8	-3.1	i	0.97
CC(C)(C)N1C(=O)c2ccc(C(=O)Nc3ccc(-c4nc5ccccc5[nH]4)cc3)cc2C1=O
 : 5.7	10.7	112.5	102.0	-0.2	i	0.84
O=C(NC(=S)NN1CCCCC1c1cccnc1)c1ccc(Cl)cc1Cl (stereo not drawn)
 : nt	nt	nt	97.5	nt	i	1.21
CCc1cc2cc(OC)ccc2nc1SCC(=O)NNC(=O)c1ccco1
 : -0.8	nt	nt	102.8	nt	i	1.19

Full records from above:
CCC1(C)Cc2c(sc3nnn(CC(=O)Nc4ccc(Cl)cc4)c(=O)c23)CO1 (stereo not drawn) in the list: PKD1 inh = -5.7; INS promoter inh = nt; INS promoter inh cell count = nt; RGS16-Gao = 100.2; GALR2 ag = -1.9; HSV replic up = i; HSV replic up primary fold = 0.91
N#Cc1cccc(NC(=O)CSc2ccccc2)c1 in the list: PKD1 inh = -13.0; INS promoter inh = 9.1; INS promoter inh cell count = 124.5; RGS16-Gao = 102.0; GALR2 ag = -1.1; HSV replic up = i; HSV replic up primary fold = 1.01

The list goes on:
SMILES | PKD1 inh | INS promoter inh | INS promoter inh cell count | RGS16-Gao | GALR2 ag | HSV replic up | HSV replic up primary fold
CCNC(=S)N1CCN(S(=O)(=O)c2ccccc2C(F)(F)F)CC1 | -8.1 | nt | nt | 101.3 | nt | i | 0.88
CCN(CC)CCN1C(=O)C(=O)/C(=C(/O)c2c(C)[nH]c(C(=O)OC)c2C)C1c1ccc(C)o1 (stereo not drawn) | nt | nt | nt | 99.6 | nt | i | 0.92
O=C1CC(c2ccccc2)n2nc(NC(=O)c3ccccc3)nc2N1 (stereo not drawn) | -5.8 | 15.4 | 109.1 | 104.0 | -2.7 | i | 0.73
Cc1ccc(S(=O)(=O)N[C@H](C(=O)Oc2ccc3c(C(F)(F)F)cc(=O)oc3c2)c2ccccc2)cc1 | 7.2 | nt | nt | 99.3 | -1.1 | ? | nt
CCOc1ccc(C(=O)NC(=S)NC2CCCC2)cc1[N+](=O)[O-] | -13.5 | -59.0 | 91.6 | 108.2 | 0.5 | i | 0.93
Cc1c(C(=O)N/N=C/c2ccc(O)c(Br)c2)sc(N)c1C#N | 76.2* | -5.9 | 220.7 | 96.2 | -0.2 | i | 1.16
CCOC(=O)C1CCCN(c2nc3ccccc3nc2C(C#N)C(=O)NCc2ccccc2)C1 (stereo not drawn) | -4.8 | 24.1 | 120.7 | 107.7 | 1.2 | i | 0.95
O=C(Cn1ncc2c(=O)oc3ccccc3c21)NCCc1ccsc1 | -8.0 | nt | nt | 102.4 | -0.7 | i | 0.83
CCCCn1c(SCC(=O)c2ccc(OC)cc2OC)nc2cc(S(N)(=O)=O)ccc21 | -8.5 | -14.3 | 177.2 | 87.4 | -0.5 | i | 0.94
Cc1cc(NC(=O)COC(=O)COc2ccc(C(=O)c3ccccc3)cc2)no1 | -0.6 | 8.3 | 68.9 | 103.2 | -2.0 | i | 1
Cc1noc(C)c1S(=O)(=O)N(CC(=O)N1CCCC1)c1ccc(C(C)C)cc1 | 0.6 | nt | nt | 103.4 | -0.9 | i | 0.84
CCn1cc(Cl)c(C(=O)Nc2cccc(C(F)(F)F)c2)n1 | -1.3 | 53.3 | 152.4 | 108.7 | nt | i | 0.93
CCOC(=O)c1ccc(Oc2cn[nH]c2-c2ccc(O)cc2O)cc1 | nt | nt | nt | 103.1 | nt | i | 0.87
CCOc1ccc(S(=O)(=O)Nc2ccccc2C(=O)NCC2CCCO2)cc1 (stereo not drawn) | -4.4 | nt | nt | 125.8 | -3.2 | i | 1.11
O=C(CN1CCN(c2ccc(F)cc2)CC1)N1CCC(Cc2ccccc2)CC1 | -8.4 | 37.1 | 46.0 | 101.8 | -1.9 | i | 0.68
O=C(/C=C/c1ccco1)NC(=S)Nc1ccccc1N1CCCC1 | -2.5 | 5.0 | 70.4 | 108.1 | nt | i | 0.87
Cc1ccc(NC2c3ccccc3C(=O)N2CCN2CCOCC2)cc1 (stereo not drawn) | 6.4 | nt | nt | 99.5 | -1.8 | i | 0.98
O=C(Oc1ccc2c(c1)C(=O)c1ccccc1CO2)c1ccccc1 | -0.3 | 5.7 | 115.0 | 99.4 | -1.4 | i | 0.93
COc1cc(-c2nnc(-c3cccs3)o2)cc(OC)c1OC | -4.4 | -92.9 | 98.1 | 99.8 | -1.5 | i | 0.88
CC(=O)c1c(C)[nH]c(C(=O)OCC(=O)Nc2cc(C(F)(F)F)ccc2N2CCOCC2)c1C | 4.1 | -42.9 | 111.6 | 99.3 | -0.9 | i | 0.87
COc1ccccc1N(CC(=O)Nc1ccc2c(c1)OCCO2)S(C)(=O)=O | -9.9 | 21.4 | 83.6 | 98.8 | -3.0 | i | 0.91
COc1ccc(Cc2noc(CN(C)CCN3CCc4ccccc4C3)n2)cc1OC | -1.3 | nt | nt | 105.1 | nt | i | 0.99
CCCOc1ccc(C(=O)OCC(=O)c2c(N)n(C)c(=O)n(C)c2=O)cc1OC | 2.1 | -16.7 | 111.7 | 112.4 | nt | i | 1.01
COc1ccc2sc(N(CCN(C)C)C(=O)c3cc(Cl)sc3Cl)nc2c1 | -2.6 | nt | nt | 108.7 | nt | i | 1.01

Compounds shown so far that have a COOH group, in the order listed:
SMILES | PKD1 inh | INS promoter inh | INS promoter inh cell count | RGS16-Gao | GALR2 ag | HSV replic up | HSV replic up primary fold
Cc1ccc(S(=O)(=O)c2ccc(Cl)cc2)cc1S(=O)(=O)NC(C)C(=O)O (stereo not drawn) | -5.2 | 11.5 | 104.5 | 111.7 | -1.4 | i | 0.68
O=C(O)CCSc1nnc(COc2cccc3cccnc23)n1-c1ccccc1 | -8.2 | 25.6 | 108.1 | 96.5 | nt | i | 0.88

Carrying on:
SMILES | PKD1 inh | INS promoter inh | INS promoter inh cell count | RGS16-Gao | GALR2 ag | HSV replic up | HSV replic up primary fold
COc1cc(OC)c(NC(=O)CC(C)=O)cc1Cl | -4.0 | -68.8 | 89.9 | 160.5 | -1.5 | i | 0.94
c1cc(CNc2ccc3c(c2)OCO3)ccn1 | -5.3 | 35.1 | 52.1 | 101.0 | -0.6 | i | 0.88
O=C(CN1CCCCCC1=O)N1CCN(S(=O)(=O)c2cccs2)CC1 | 6.4 | -22.2 | 133.0 | 102.3 | nt | i | 1.06
Nc1nc(SCC(=O)Nc2ccc3c(c2)OCO3)n[nH]1 | -4.0 | nt | nt | 100.1 | nt | i | 1.12

Screening data as filed in PubChem.
